# Bioassay records (PubChem BioAssay)
# AID504770 – E. coli YBA685 growth inhibition, screen for V. cholerae RctB inhibitors; z-score (concentration not given with the values); 0.27% of 130,000 active; E. coli YBA685 rctB-dependent plasmid, OD600 growth, 3 h; active compounds read low;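 active means z-score under -2 on both plates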;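 further: wells of about 30 µL received 100 nL stock; score is relative to mean and SD of the test wells; the first replicate is given; strong numbers were not always called active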
# CapD inh – inhibitors of Bacillus anthracis CapD enzyme | purified CapD enzyme, fluorescence intensity read-out; active compounds read low; some hits fall short of the stated cut | z-score (concentration not given with the values) | AID 492967 | 0.23% of 140,000 active;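 active means z-score under -4 in either of two replicates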;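 further: stock transfer was 100 nL into about 40 µL; score is relative to mean and spread of the plate; one replicate is shown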
# Active calls of the source: *; i = inactive; . = no result given. Rows were taken by chance. Share with any hit: about 0.37%.
SMILES,AID504770,CapD inh
CCOC(=O)C1=C(C)N=c2s/c(=C\c3cc(Br)c(OC)cc3OC)c(=O)n2C1c1ccc2c(c1)OCO2 (stereo not given),.,-0.65
CCOC(=O)c1cc2c3c(c1)C1C=CCC1C(c1ccc(Cl)cc1)N3CC1CC=CC21 (stereo not given),.,1.9
COc1ccc(C(=O)CC2(O)C(=O)Nc3ccc(Br)cc32)cc1[N+](=O)[O-] (stereo not given),.,-0.46
O=C(Cc1ccc(S(=O)(=O)N2CCCC2)s1)Nc1ccc2c(c1)OCO2,-0.35,.
COc1ccc(NC(=O)CSc2nc3[nH]ncc3c(=O)n2-c2ccc(Cl)cc2Cl)cc1OC,.,0.1
N#CC(C(=O)C1CC1)=C1SCCS1,0.25,-2.6
CCN(Cc1ccccc1)c1sc(S(=O)(=O)CC)nc1S(=O)(=O)c1ccc(C)cc1,1.2,-0.075
COc1ccccc1CNc1nc(-c2cc(C)n(C)c2C)cs1,0.6,.
CCCc1nc2ccccc2c(=O)n1NC(=O)c1c(O)c2ccccc2n(CC)c1=O,.,-0.94
CCn1c(COC(=O)/C=C/c2nc3ccccc3s2)nc2cc(S(=O)(=O)N(C)C)ccc21,0.4,.
COCC(C)NCc1c(F)cccc1F (stereo not given),0.8,0.025
CCNc1nc(-c2cccc(C(F)(F)F)c2)cs1,-0.2,.
CCc1ccc(NC(=O)C2CCC(=O)N(c3ccc(OC)cc3)C2c2ccc(OC)cc2)cc1 (stereo not given),.,0.53
CC(=O)Nn1cnc2ccccc21,-0.6,-0.51
CSc1ccc2nnc(-c3ccc(F)cc3)n2n1,0.3,1.1
Cc1ccc2c(c1)NC(c1ccc(N(C)C)cc1)O2 (stereo not given),0.5,3.7
CCOC(=O)CN1C(=S)NC(C)(C)C=C1C,-1.3,0.18
O/N=C/c1cccs1,0.5,-0.32
Nc1cccnc1Sc1ccccn1,.,1.2
FC(F)Oc1ccc(Cl)cc1COc1ncnc2ccccc12,0.05,.

# Of the compounds above, these have bromine.
SMILES,AID504770,CapD inh
CCOC(=O)C1=C(C)N=c2s/c(=C\c3cc(Br)c(OC)cc3OC)c(=O)n2C1c1ccc2c(c1)OCO2 (stereo not given),.,-0.65
COc1ccc(C(=O)CC2(O)C(=O)Nc3ccc(Br)cc32)cc1[N+](=O)[O-] (stereo not given),.,-0.46

# The main list resumes, starting two compounds before the break.
SMILES,AID504770,CapD inh
Nc1cccnc1Sc1ccccn1,.,1.2
FC(F)Oc1ccc(Cl)cc1COc1ncnc2ccccc12,0.05,.
Cc1ccc(C(=O)N2N=C3c4ccccc4S(=O)(=O)N3C2N(C)C)cc1 (stereo not given),-0.5,2.6
COC(=O)C1=CNC=C(C(=O)OC)C1c1ccc(C(F)(F)F)cc1,0.25,.
Cc1ccc(C)n1Cc1ccco1,0.7,-0.3
CCOC(=O)C1=C(C)N=c2s/c(=C\c3cc([N+](=O)[O-])c(OC)cc3OC)c(=O)n2C1c1ccc(OC)cc1 (stereo not given),.,-0.02
CC(C)(C)n1nc(C2CC2)cc1NC(=O)Nc1ccccc1,-0.95,0.11
CCOC(=O)c1sc(CS(=O)(=O)c2ccc(Cl)cc2)nc1C,3,-1
O=S(=O)(c1ccc(Br)cc1)C(F)(F)F,-0.25,i
CCC(NC(N)=O)C(=O)O (stereo not given),-0.5,.
COc1cccc2cc(C(=O)NC3CCCCC3)c(=O)oc12,1.2,-0.065
CCOC(=O)/C(C#N)=C1/Sc2ccccc2N1C,-0.6,-1.4
O=C(Cc1cccc2ccccc12)Nc1nnc(-c2ccncc2)o1,-1.3,.
CC(NC(=O)COn1nnc2ccccc21)C1CC2CCC1C2 (stereo not given),0.7,.
Cc1[nH]nc2c1C(c1ccccc1)C1=C(CC(C)(C)CC1=O)N2 (stereo not given),-0.3,.
O=S(=O)(NCc1ccco1)c1ccc2c(c1)Cc1ccccc1-2,-0.75,2.1
CCc1ccc(N/C(SCc2cccc(F)c2)=C(/C#N)C(=O)NCc2ccc3c(c2)OCO3)cc1,.,0.025
Cc1cccc(NC(=O)Cn2c(=O)n3nc(CCn4nc(C)cc4C)nc3c3ccccc32)c1,-0.15,0.38
O=C(NC(=O)c1c(F)cccc1F)Nc1ccccc1Oc1ccc(Cl)cc1Cl,.,0.54
O=C1C(=O)N(c2ccccc2)C(c2ccc3c(c2)OCO3)/C1=C(\O)c1ccccc1 (stereo not given),.,-0.31
C(#Cc1ccccc1)CN1CCCCC1,2,.
Nc1cscc1S(=O)(=O)c1ccccc1,.,-0.77
C=C(C)C(=O)Nc1ccc2c(c1)C(=O)NC2=O,-1.4,-0.24
COCC(C)n1c(SC(C)C(=O)NC2(C#N)CCCCC2)nc2ccccc2c1=O (stereo not given),0.1,.
NC(=O)/C=C/C(=O)NCc1ccccc1,-1.4,.
Cn1nc(-c2ccc3c(c2)OCCO3)c2ccccc2c1=O,0.25,.
NNc1nc2c(c(=O)[nH]1)C1(CCCCC1)Cc1ccccc1-2,0.2,11
CCc1c(C)nc2cc(-c3cc(OC)cc(OC)c3)nn2c1NCCCN(CC)CC,-0.55,.
CCOc1cc(/C=C2\COc3ccccc3C2=O)ccc1OCC(=O)N(C)C,0.35,.
CCOc1ccc(NC(=O)C2CC(=O)OC2c2ccccc2)cc1 (stereo not given),-0.4,-1.4
COC(=O)c1sccc1NC(=O)CC(C)(C)CC(=O)O,.,0.08
COc1cc(C2Nc3ccc4ccccc4c3C3=C2C(=O)CC(C)(C)C3)cc(Br)c1OC (stereo not given),.,2.4
O=Nc1c(O)n(Cc2ccccc2)c2ccccc12,0.05,-0.29
CC(COc1nnc(-c2cccs2)o1)NC(=O)Cn1nnc2ccccc2c1=O (stereo not given),0.15,0.33
CCOC(=O)c1[nH]nc(C(=O)c2ccc(Br)cc2)c1O,-1,-0.99
NS(=O)(=O)c1ccc(NC(=O)N2CCCCC2)cc1,-1.1,-0.48
Cc1ccc(/C=N/NC(=O)C2C(c3ccccc3)C(C(=O)N3CCOCC3)C2c2ccccc2)cc1 (stereo not given),.,0.14
CC(C)NC(=O)COc1ccc(-c2ccccc2)cc1,1.2,-0.16
c1ccc(-c2ccc3c4ccccc4cc-3o2)cc1,0.1,0.005
CC(C)(CO)N=Cc1c(O)[nH]c2ccccc12,-0.85,-2.9
O=C(NC(=S)NC1CCSC1=O)c1ccco1 (stereo not given),-0.65,.
O=C(OCC(=O)N1CCN(S(=O)(=O)c2ccccc2)CC1)C1CCCCC1,-0.1,.
CCN1C(=O)CC(NC2CCN(C(=O)c3cccs3)CC2)C1=O (stereo not given),-1.1,-0.48
CS(=O)(=O)CC(=O)c1ccc(F)cc1,-0.7,-0.39
CC/C(=N/O)C(=O)c1ccc(Br)cc1,0.65,-0.095
COCCn1cnnc1SCC(=O)O,1.4,.
CC(=O)N(Cc1ccco1)C1(C(=O)NC2CCCC2)CCCCC1,0.3,-0.3
COC(=O)Cc1ccc(C#N)n1C,-0.15,0.79
COC(=O)c1nnn(CC(=O)Nc2ccc3c(c2)OCO3)c1C(=O)OC,-0.4,-0.33
O=C(Nc1c[nH]c(=O)[nH]c1=O)C1CCCO1 (stereo not given),-1,.
COc1ccc(-n2c(SC)nc3sc4c(c3c2=O)CC(C)(C)OC4)cc1,.,-0.005
Clc1ccc(OCCn2ccnc2)c(Br)c1,-2.7*,-0.32

# Next section; it opens with the 6 that closed the last part.
SMILES,AID504770,CapD inh
CC(=O)N(Cc1ccco1)C1(C(=O)NC2CCCC2)CCCCC1,0.3,-0.3
COC(=O)Cc1ccc(C#N)n1C,-0.15,0.79
COC(=O)c1nnn(CC(=O)Nc2ccc3c(c2)OCO3)c1C(=O)OC,-0.4,-0.33
O=C(Nc1c[nH]c(=O)[nH]c1=O)C1CCCO1 (stereo not given),-1,.
COc1ccc(-n2c(SC)nc3sc4c(c3c2=O)CC(C)(C)OC4)cc1,.,-0.005
Clc1ccc(OCCn2ccnc2)c(Br)c1,-2.7*,-0.32
COc1c(F)c(F)c(C(=O)Nc2ccc(-c3nc4ccccc4o3)cc2)c(F)c1F,-1,5.9
COc1cc(NC(C)C(=O)N2CC(C)CC(C)C2)c(OC)cc1Cl (stereo not given),-1.3,.
O=C(Nc1ncn(Cc2ccccc2)n1)c1cc([N+](=O)[O-])cc([N+](=O)[O-])c1,.,-0.06
COc1cc(OC)c(NC(=O)c2ccc3c(SCC(=O)O)c4c(nc3c2)CCCC4)cc1Cl,-0.6,-1.5
CC1(C)CC(=O)C2=C(C1)N(c1ccc(S(N)(=O)=O)cc1)C(N)=C(C#N)C2c1ccco1 (stereo not given),-1.4,-0.46
O=C(COC(=O)c1ccc(CO)cc1)Nc1ccccc1,-0.2,.
O=C1OC2(CCCCC2)OC1c1ccccc1 (stereo not given),-0.2,-0.71
O=S(=O)(Oc1ccc(-c2csnn2)cc1)c1ccc(Cl)cc1,.,-0.48
CCCCN(S(=O)(=O)c1ccccc1)S(=O)(=O)c1ccccc1,0,.
c1ccc2c(c1)CNC(c1ccc3c(c1)OCO3)c1cccn1-2 (stereo not given),0.05,0.32
O=c1ccc(-c2ccc(S(=O)(=O)NCCc3ccccc3)s2)n[nH]1,-1.5,1.4
CC(CN1CCCC1)OC(=O)c1cccc(Br)c1 (stereo not given),-0.25,-0.41
O=C(CN1C(=O)CSCC1=O)NCc1ccc(F)cc1,-0.75,0.38
COc1cc(-c2nc3ncccn3c2Nc2ccc(OC)c(OC)c2)ccc1O,-0.45,-2.2
COCCn1ccc2nc(C)c(C(=O)Nc3ccccc3)cc2c1=O,-0.2,6.6
Cc1cc(C)nc(NS(=O)(=O)c2ccc(NC(=O)CSc3nc(-c4ccccc4)c(-c4ccccc4)o3)cc2)n1,.,7.7
CCc1ccc(-n2cc3c(c(C#N)c2=N)CC(C)(C)CC3=O)cc1,0.15,-0.4
COC(=O)c1sc(SC)c(C#N)c1-c1ccc(Br)s1,0.85,0.32
O=C(NCc1ccc(S(=O)(=O)NCCN2CCOCC2)s1)c1ccccc1,-1.1,-0.4
O=C1C2C3C=CC(C3)C2C(=O)N1CCC1=CCCCC1 (stereo not given),1.4,-0.15
CS(=O)(=O)c1ccc2nc(NC(=O)CCCN3C(=O)c4cccc5cccc(c45)C3=O)sc2c1,.,4.3
Cc1nc2c(C#N)ncn2c(C)c1Cc1cccc(F)c1,-0.35,5
CCOC(Cn1c(C)nc2ccccc21)OCC,-0.75,-0.44
COc1ccc(-n2nc3c(c2NC(=O)c2ccc(S(=O)(=O)N4CCCCC4)cc2)CS(=O)(=O)C3)cc1,.,-0.22
Cc1nn(CCCC(=O)NCCc2cccs2)c(=O)c2c1sc1ccccc12,1.3,1.9
COc1cc(NS(=O)(=O)c2ccc(NC(=S)NC(=O)c3ccco3)cc2)ncn1,-0.05,-0.46
CCCSc1nsc(NC(=O)c2cnc3ccccc3n2)n1,-0.3,.
O=C(CSc1nnc(C2CC2)n1C1CC1)c1ccc2c(c1)OCO2,-0.45,.
O=C(COc1ccccc1)N1CCCCCCC1,-0.85,0.41
CCC12c3ccccc3C(c3ccccc31)C1C(=O)N(c3ccc(C)c(Cl)c3)C(=O)C12 (stereo not given),.,-0.3

# Shown bar-delimited: 6 of the compounds above
mol | AID504770 | CapD inh
COc1ccc(-n2nc3c(c2NC(=O)c2ccc(S(=O)(=O)N4CCCCC4)cc2)CS(=O)(=O)C3)cc1 | . | -0.22
Cc1nn(CCCC(=O)NCCc2cccs2)c(=O)c2c1sc1ccccc12 | 1.3 | 1.9
COc1cc(NS(=O)(=O)c2ccc(NC(=S)NC(=O)c3ccco3)cc2)ncn1 | -0.05 | -0.46
CCCSc1nsc(NC(=O)c2cnc3ccccc3n2)n1 | -0.3 | .
O=C(CSc1nnc(C2CC2)n1C1CC1)c1ccc2c(c1)OCO2 | -0.45 | .
O=C(COc1ccccc1)N1CCCCCCC1 | -0.85 | 0.41

# (cont.)
SMILES,AID504770,CapD inh
CC(C)C(=O)Nc1ncnc2nc[nH]c12,.,0.41
O=C(Nc1ccc(Cl)c(Cl)c1)c1cc([N+](=O)[O-])ccc1N1CCCCC1,.,0.68
CCOC(=O)c1c(CN(C(=O)CN2CCCCC2)c2ccccc2)n(-c2ccccc2)c2cc(Br)c(OC)cc12,.,-0.29
CC1CC(C)CN(CCCNC(=O)c2cc3c(=O)[nH]c4ccccc4c3s2)C1 (stereo not given),2.2,-1.5
COc1ccc(Nc2nc(N3CCOCC3)nc(N3CCN(c4ccc(OC)cc4)CC3)n2)cc1,.,0.3
CN(C)CCn1c2c(c(SCC(=O)NCc3ccccc3)nc1=O)CCCC2,-1,.
Cc1ccc(-n2c(-c3ccncc3)n[nH]c2=S)cc1,.,-0.18
O=S(=O)(c1ccc(F)cc1)N1CCc2[nH]c3ccc(F)cc3c2C1,-0.5,0.54
COc1ccc(-c2nn[nH]n2)cc1OC,-0.2,-0.11
O=C(O)c1cc(=O)n(CN2CCC(Cc3ccccc3)CC2)c(=O)[nH]1,0.8,.
Cc1ccc(C)n1-c1cc(Cl)ccc1N1CCCCC1,-0.5,.
CCN(CC)S(=O)(=O)c1ccc2c(c1)nc(SCC(=O)NC1CC1)n2-c1ccccc1OC,0,.
c1ccc(CCN2CCN(CCc3ccccn3)CC2)nc1,0.75,0.46
CC(NCCN1C(=O)S/C(=C\c2ccccc2F)C1=O)=C(C#N)C#N,-0.2,.
O=c1[nH]n(CNc2ccc(F)cc2)c(=O)c2ccccc12,2.2,-0.1
Cc1ccc2cc(C3=NN(C(=O)CCC(=O)O)C(c4ccc(Br)cc4)C3)c(Cl)nc2c1 (stereo not given),.,-0.58
O=C(O)CNS(=O)(=O)c1cccc2nsnc12,.,-0.42
CC(C)C1N(C(=O)N(C)C)CCN1S(=O)(=O)c1ccccc1 (stereo not given),1.1,.
CCOc1ccc(N(CC(=O)Nc2ccccc2)S(C)(=O)=O)cc1,-0.3,.
COc1ccc(C=Nc2ccc(/C=C3\C(=O)C(C(C)C)CCC3C)cc2)cc1 (stereo not given),.,-0.45
OC(COCc1ccccc1F)CN1CCCC1 (stereo not given),-0.8,0.67
CON(C)C(=O)N1CCc2c(F)c(F)c(F)c(F)c21,.,-0.17
